Screens: PubChem BioAssay, several laboratories
rRNA inh HTS: selective bacterial rRNA inhibition in E. coli; actives 1.6% (n = 350,000); GFP signal change (wild-type ribosome), % (no concentration beside the values); E. coli WT GFP vs humanized-ribosome RFP mutants, fluorescence, 24 h; active compounds read low; DMSO median 0, no signal -100;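 active = significant combined selectivity score with lowered wild-type GFP, culture density cut under 30%, mutant RFP and density less affected; inactive = any of these conditions unmet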; note: one replicate is shown; some compounds called inactive have numbers as strong as hits
T cruzi inh: blocks replication of Trypanosoma cruzi. AID 1885. inhibition, % (test concentration not listed). T. cruzi beta-gal in NIH3T3, luminescence, 90 h. actives 1.4% (n = 300,000);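 active = mean inhibition across valid replicates above about 55%, limit read from the data; inconclusive = mean below that limit but half or more replicates reach it; inactive = mean below it, under half of replicates reach it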;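 note: signal also drops with host cell toxicity which is not excluded here; 0% = plate median of DMSO wells and 100% = zero luminescence signal; higher percent means less beta-gal luminescence so fewer parasites; stock transfer was 50 nL into about 50 µL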
Beta cell apopt: blocks beta cell apoptosis; AID 435005; protection from apoptosis, % (no concentration beside the values); actives 0.8% (n = 300,000); INS-1E cytokine-induced death, ATP luminescence, 48 h; percent of positive-control rescue, neutral wells zero;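 active = all replicates at 75% or more, or half of them and the mean; inconclusive = half reach 75% but not the mean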;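 note: 0% = cytokine-treated negative control wells and 100% = positive control rescue; higher means more ATP so stronger rescue from cytokine killing; wells of about 40 µL received 100 nL stock; the first replicate is given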
RanGTP-Imp inh: inhibitors of RanGTP-importin-beta interaction, primary screen, biochemical, FRET, CFP-Ran, YFP-importin-beta, homogeneous; cell-free CFP-Ran/YFP-importin-beta FRET ratio; inhibition, % (concentration not given with the values); actives 1.1% (n = 300,000);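 active = most replicates above 15%; inconclusive = exactly half above 15%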;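 note: 0% = DMSO wells and 100% = Ran loaded with GDP instead of GTP; wells of about 40 µL received 100 nL stock; the first replicate is given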
MLL AF4-AF9 inh: inhibitors of human MLL-AF4/AF9 interaction | AlphaScreen, biotin-AF4 peptide binding to FLAG-AF9 | inhibition, % at 10 µM | actives 0.47% (n = 350,000) | AID 651704;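 active = every replicate reaching a set inhibition limit, whatever the replicate mean, cut at about 25% in these data; inconclusive = mean inhibition reaches that limit but some replicates miss it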;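 note: 0% = plate neutral control median and 100% = total signal loss; the record names both 10 and 1 µM as test concentration; the first replicate is given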
Target sequence (P42568 whole entry, looked up): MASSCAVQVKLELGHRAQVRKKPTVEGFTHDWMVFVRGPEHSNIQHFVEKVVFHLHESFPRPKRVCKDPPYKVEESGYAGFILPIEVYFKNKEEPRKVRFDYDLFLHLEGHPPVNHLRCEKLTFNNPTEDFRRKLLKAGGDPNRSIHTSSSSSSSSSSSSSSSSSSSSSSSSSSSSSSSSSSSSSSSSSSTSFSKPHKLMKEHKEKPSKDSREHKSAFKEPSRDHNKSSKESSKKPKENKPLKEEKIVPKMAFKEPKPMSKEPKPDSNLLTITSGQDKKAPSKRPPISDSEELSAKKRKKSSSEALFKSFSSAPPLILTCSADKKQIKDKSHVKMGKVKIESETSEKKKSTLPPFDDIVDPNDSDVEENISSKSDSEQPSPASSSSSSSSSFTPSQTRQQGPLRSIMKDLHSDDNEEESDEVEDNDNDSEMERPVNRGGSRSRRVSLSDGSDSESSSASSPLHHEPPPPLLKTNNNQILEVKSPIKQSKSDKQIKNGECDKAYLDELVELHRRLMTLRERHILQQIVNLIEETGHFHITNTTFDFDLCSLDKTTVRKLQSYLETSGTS
Bfl-1 A1 inh: inhibitors of the anti-apoptotic protein A1, read as caspase activation | caspase activation, % (test concentration not listed) | actives 0.066% (n = 330,000) | MEF A1-2A-BIM cells, Caspase-Glo 3/7 luminescence, 3 h; percent of clofoctol response, vehicle zero | AID 2462;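 active = over half of replicate activation scores above 10%, or exactly half above 10 with the replicate mean above 10; inconclusive = replicate mean below 10 yet half the replicates above 10; inactive = over half of replicates below 10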;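 note: wells of about 30 µL received 50 nL stock; many hits fall short of the cut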
Vif TR-FRET: HIV-1 Vif–A3G interaction blockers – biochemical, TR-FRET, GST-Vif 1-94, biotin-A3G peptide, dose response retest, primary screen (AID 1117319). TR-FRET GST-Vif / biotin-A3G peptide binding; higher % means a stronger effect; test concentration not given here; strong numbers were not always called active. inhibition, %, or IC50 in µM where a hit was titrated. actives 0.57% (n = 260,000);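 active = above the screen mean plus three standard deviations and confirmed in dose response; inconclusive = results disagree or hit not tested in dose response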;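 note: Vif residues 1-94 fused to GST binding biotinylated APOBEC3G peptide 110-148; 0% = full assay without inhibitor and 100% = GST in place of GST-Vif; retest series ran down from 100 µM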
Calb FLC: affects C. albicans growth with fluconazole; actives 0.57% (n = 300,000); C. albicans CaCi-2 (fluconazole-resistant clinical isolate) + fluconazole, Alamar Blue growth, 48 h; growth inhibition, % (concentration not given with the values);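 active = most replicates above 75%; inconclusive = exactly half above 75%; inactive = most below 75%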;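 note: all wells also contain fluconazole at 8 µg/ml as a sub-toxic cotreatment; 0% = median of DMSO wells and 100% = median of geldanamycin control wells; wells of about 8 µL received 7.5 nL stock; the first replicate is given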
rRNA inh HTS OD600: also measured in rRNA inh HTS; calls as there; OD600 change, %; measured here: OD600 growth;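 optical density of the mix in the first replicate; 0 = DMSO median and -100 = no signal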
rRNA inh HTS RFP: recorded beside rRNA inh HTS, whose call it bears; RFP signal change, %; measured here: RFP humanized mutant strains;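 first replicate; 0 = DMSO median and -100 = no signal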
Numbers without * were called inactive; ? = inconclusive; . = not tested or not shown.

molecule	rRNA inh HTS	rRNA inh HTS OD600	rRNA inh HTS RFP	T cruzi inh	Beta cell apopt	RanGTP-Imp inh	MLL AF4-AF9 inh	Bfl-1 A1 inh	Vif TR-FRET	Calb FLC
CCCCn1c(SCC(=O)Nc2cc(C(F)(F)F)cc(C(F)(F)F)c2)nnc1C(CC)N(C)C (centres undefined)	-31	-27	7.3	29	-3	-2.3	-8.4	0.3	30%	5
CCOc1cccc2sc(Nc3nc4ccc(NC(C)=O)cc4s3)nc12	9	7	2.9	57*	28	0.4	-6.5	1.2	13%	25
CCN(CC(=O)Nc1cc(Cl)ccc1C)C(=O)C1CCCCC1	0	-3	-0.4	-15	-3	?	-1.1	1.5	2%	-8
CC(C)(C)C(=O)Nc1nnc(SCc2cccc(F)c2)s1	-32	-51	3.6	33	-5	0.3	-0.2	0.0	-3%	-12
O=C(O)c1ccc2[nH]c3c(c2c1)CSCC3	.	.	.	1	.	11	.	-0.4	?	-7
COc1ccc([C@H]2CC(=O)C=C(c3cccc(C(C)C)c3)C2)cc1OC	-17	-33	-17	.	-9	.	4.6	1.8	.	.
CC1=Nc2ccccc2N=C(NC(=O)/C=C/C(=O)O)C1c1ccccc1 (centres undefined)	6	-7	-0.7	-6	2	-0.9	-2.2	0.4	3%	-11
O=C(Cc1ccccc1)N1CCN(C(=O)c2ccc([N+](=O)[O-])cc2)CC1	1	-2	1.9	-23	2	-5.3	-0.7	-0.1	1%	6
c1cncc(CSc2ccc(-c3cccnc3)nn2)c1	0	-8	-1.7	3	0	0.9	-0.2	0.8	6%	44
O=C(CCN1CCN(c2ccc(Cl)cc2)CC1)Nc1ccccc1F	.	.	.	10	0	6.1	.	-0.8	2%	-8
Cc1nnc2c(NCCC(C)C)nc3ccccc3n12	22	8	2.4	-24	0	-0.5	-0.7	-0.6	-15%	-1
O=c1c(-c2ccccc2)nc(-c2ccccc2)cn1O	.	.	.	4	-1	-1.0	.	-0.3	4%	6
Cc1nc2nc(NC(=O)c3ccco3)[nH]n2c(=O)c1C	18	5	3.9	-12	-5	-4.6	-1.5	0.5	-4%	-11
COc1ccc2[nH]c(-c3cccc(F)c3)cc(=O)c2c1	6	20	-4.9	-10	20	7.1	-0.4	-3.1	-3%	4
CS(=O)(=O)N1CCC(C(=O)Nc2ccc(Cl)c(C(F)(F)F)c2)CC1	.	.	.	0	-2	-3.3	.	-0.2	-5%	-8
COc1ccc(C(=O)N(Cc2ccccc2)c2ccc(C)cc2)cc1S(=O)(=O)N1CCOCC1	-25	-29	1.9	38	4	0.2	3.9	-2.0	28%	-13
COc1ccc(OC)c(NC(=O)COC(=O)C2CCCCC2)c1	2	0	3.4	.	-2	.	-8.9	0.2	0%	.
Cc1noc(NC(=O)c2ccccc2Cl)c1C#N	.	.	.	-10	-8	0.4	.	0.2	7%	54
COc1ccc(-c2nn(-c3ccccc3)cc2/C=C2/SC(=S)N(CCC(=O)O)C2=O)cc1	3	18	2.0	14	-4	-6.6	9.3	0.3	9%	2
CN(CC(=O)Nc1ccccc1-c1ccccc1)Cc1ccccc1Cl	-27	-27	-4.3	37	.	4.2	-2.4	0.3	4%	4
CC(C)(C)NC(=O)CN(Cc1ccc2c(c1)OCO2)C(=O)CCC(=O)Nc1nccs1	5	10	0.3	-30	.	2.5	1.3	-0.1	13%	-5
Cc1cccc(C)c1NC(=O)c1sc(Cl)nc1C	6	5	-2.4	-2	-6	-2.0	2.4	-1.0	-3%	-13
COc1ccccc1C(=O)COC(=O)Cn1c(C)csc1=O	14	6	-1.6	-11	-4	8.7	5.8	0.9	6%	0
O=C(CSc1nnc2c(n1)[nH]c1ccc(S(=O)(=O)N3CCOCC3)cc12)Nc1ccccc1Cl	1	7	2.4	10	4	-2.6	0.5	0.9	-13%	-7
O=C(NCc1ccncc1)c1ccc(Cn2cc(C(F)(F)F)ccc2=O)cc1	3	9	-1.6	-3	-11	0.7	.	-1.2	66%	5
Brc1ccc(-c2nc(-c3ccncc3)no2)cc1	7	16	0.4	3	0	1.5	0.4	-2.7	-17%	-4
Cc1c(-c2cc(C(=O)O)no2)cnn1C	11	19	-0.2	-13	2	-3.6	-0.9	-0.6	-4%	-6
CC(=O)c1ccc(N2CCN(C(=O)c3cc(C)on3)CC2)cc1	-5	-5	-6.9	15	6	-1.1	-3.7	0.0	12%	10
Cc1ccc(S(=O)(=O)N(C)C)cc1NC(=S)NCCCn1ccnc1	30	13	0.8	-18	-4	.	-0.2	0.2	-2%	-9
Cc1ccc(NS(=O)(=O)c2cccc(C(=O)O)c2)c(C)c1	-4	-1	-0.8	6	-1	-3.4	0.4	-0.6	2%	34

Next section; the last four above are carried over.
molecule	rRNA inh HTS	rRNA inh HTS OD600	rRNA inh HTS RFP	T cruzi inh	Beta cell apopt	RanGTP-Imp inh	MLL AF4-AF9 inh	Bfl-1 A1 inh	Vif TR-FRET	Calb FLC
Cc1c(-c2cc(C(=O)O)no2)cnn1C	11	19	-0.2	-13	2	-3.6	-0.9	-0.6	-4%	-6
CC(=O)c1ccc(N2CCN(C(=O)c3cc(C)on3)CC2)cc1	-5	-5	-6.9	15	6	-1.1	-3.7	0.0	12%	10
Cc1ccc(S(=O)(=O)N(C)C)cc1NC(=S)NCCCn1ccnc1	30	13	0.8	-18	-4	.	-0.2	0.2	-2%	-9
Cc1ccc(NS(=O)(=O)c2cccc(C(=O)O)c2)c(C)c1	-4	-1	-0.8	6	-1	-3.4	0.4	-0.6	2%	34
Cc1ccc(-c2nc(=O)[nH]c3ccc(Br)cc23)cc1	7	2	0.7	3	8	-1.6	-0.4	1.3	.	7
COC(=O)c1ccc(/C=C2/C(=O)Oc3ccccc32)cc1	5	9	-1.5	-10	-2	2.9	4.3	-0.6	.	5
COc1ccc(C(=O)c2cc([N+](=O)[O-])ccc2N2CCN(C)CC2)cc1	11	5	0.4	-52	1	-0.9	7.3	0.0	.	3
CCn1cc(C(=O)OCC(=O)OC2CC(C)CCC2C(C)C)c(=O)c2ccc(C)nc21 (centres undefined)	.	.	.	2	0	0.9	.	-0.1	7%	29
CC(C)(C)NC[C@H](O)COc1cccc2c1CCCC2=O	9	11	-0.9	.	3	.	0.3	-1.2	.	.
Cc1ccccc1C(=O)NC(CC(C)C)C(=O)Nc1ccc(F)c([N+](=O)[O-])c1 (centres undefined)	-22	-30	-8.2	-9	-3	-7.0	4.1	-0.6	5%	12
COc1ccc(N2CCN(C(=O)CSc3ncn[nH]3)CC2)cc1	4	13	-1.2	-5	-4	-2.0	-1.8	0.0	8%	-13
COCc1nnc(NC(=O)CS(=O)(=O)c2ccc(C)cc2)s1	3	5	-3.8	-9	-5	1.3	-4.8	0.2	.	0
Nn1c(SCC(=O)Nc2ccccc2F)nnc1-c1cccs1	2	-2	-0.4	2	-6	-1.9	-2.9	1.8	-3%	1
CCOC(=O)Cc1cn2c(=O)cc(CSCC(=O)Nc3ccc(C)c(C)c3)nc2s1	.	.	.	-5	0	0.8	.	-0.7	20%	-6
O=C(NCc1cccs1)c1cc(-c2ccncc2)nc2ccc(Br)cc12	.	.	.	55*	-1	0.3	.	0.4	-64%	50
O=C(CCN1C(=O)c2ccccc2S1(=O)=O)N1CCN(c2cccc(Cl)c2)CC1	-9	-11	0.3	-7	-1	0.1	0.0	-0.6	0%	3
NC(=O)CC(NC(=O)Cc1cccc2ccccc12)c1ccc(N2CCN(c3ccc(F)cc3)CC2)c([N+](=O)[O-])c1 (centres undefined)	7	4	-3.4	-4	0	1.4	.	-0.1	.	-1
Cc1cc(N2CCN(c3ccccc3)CC2)n2c(n1)nc1ccccc12	.	.	.	-3	-4	2.8	.	0.2	-7%	10
O=C(CSc1nnc(CNc2ccc(F)cc2)o1)OC1CCCCC1	.	.	.	-13	0	2.0	.	0.4	26%	-3
O=C(N/N=C/c1ccc(O)c2ncccc12)c1cccc(Br)c1	-9	-1	-0.4	60*	109*	6.9	1.7	1.6	7%	116*
CC1=C(C(=O)OCc2ccccc2)C(c2ccccc2)NC(=O)N1 (centres undefined)	-5	-2	-1.8	-3	-4	-1.6	4.0	0.5	.	6
Cc1ccccc1NC(=O)C(=O)NCCCN1CCOCC1	12	10	1.5	-15	0	-1.7	-1.1	0.0	-2%	9
O=C(NCc1ccccn1)C(=O)Nc1cc2c3c(c1)CC(=O)N3CCC2	6	7	-1.2	-10	-4	-2.4	3.9	-0.3	2%	2
c1ccc(-c2noc(-c3ccc4ccccc4c3)n2)cc1	.	.	.	-1	-2	1.5	.	-6.6	-9%	4
COc1cc(C(=O)NCc2nnc(SCC(=O)Nc3cccc(C(F)(F)F)c3)o2)cc(OC)c1OC	-4	-3	0.7	-13	0	0.1	0.3	-0.5	.	-1
O=C(CCNS(=O)(=O)c1cccs1)NCc1ccco1	.	.	.	-12	.	-3.7	.	-0.1	14%	?
Cc1cc2ccccc2c(=O)n1CC(=O)NCC(=O)N1CCN(c2ccccc2F)CC1	-2	6	3.2	6	-1	-2.0	.	1.2	-7%	-1
O=C1c2ccccc2S(=O)(=O)c2cc(C(=O)N3CCN(c4ccc(Cl)cn4)CC3)ccc21	-15	-26	8.3	10	2	-2.8	1.6	-0.7	.	1
O=C(O)C(O)(c1ccccc1)C(O)c1ccccc1 (centres undefined)	6	6	1.3	-22	.	1.3	-2.1	0.3	.	-23
CCC/C=N/NC(=O)c1cc(Br)ccc1O	.	.	.	-14	-9	1.7	.	0.8	22%	-16
CCc1nn2c(NCCOC)cc(C)nc2c1-c1ccc(F)cc1	-32	-34	-11	25	-4	24	-5.2	0.0	-2%	-2
COc1ccccc1OCCNC(=O)CNC(=O)c1ccc(Cl)c(Cl)c1	-18	-12	-1.2	-11	0	?	-1.4	0.3	1%	13
O=C(CSc1ccc(-c2ccc(F)cc2)nn1)N1CCCCC1	-19	-15	-8.5	6	1	-1.8	8.7	-8.2	-2%	19

Some of the compounds tested, so the mix of outcomes need not match the whole.
